# Tgondii IFNg: T. gondii growth inhibition with IFN-gamma, primary screen, cell-based; actives 3.8% (n = 69,000); activity change, negative = inhibition, %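 (about 20 µM by stock and volumes)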; Toxoplasma gondii growth in IFN-gamma-treated host cells; stronger effect = lower value; reference of the scale not given here;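 active = below -70%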;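 also: host cells are HeLa cells infected with Toxoplasma gondii; parasite growth read as luciferase light; one replicate is shown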
# Numbers without * were called inactive. This is a subset (hit frequency here may not be typical).
cpd	SMILES	Tgondii IFNg
1	Cc1c(-c2ccccc2)n[nH]c1C(=O)N1CCC(c2ccccc2C(=O)O)C1 (stereo unspecified)	-6
2	COCCN1CCC2OCCCC2(COCC2CC2)C1 (stereo unspecified)	-15
3	O=C(c1cccc(F)c1)N1CCCCN2[C@@H](CO)[C@H](c3ccc(C#CC4(O)CCCC4)cc3)[C@@H]2C1	-19
4	C=CCN1C(=O)CCC12CCC(NC(=O)c1ccc[nH]1)CC2 (stereo unspecified)	1
5	Cc1ccc(S(=O)(=O)N2CCC3(CC3C(=O)NCc3ccncc3)C2)cc1 (stereo unspecified)	-4
6	COc1ccc(N=Nc2c(O)[nH]c(=O)[nH]c2=O)cc1	19
7	C[C@@H](NC(=O)C[C@H]1CC[C@@H]2[C@H](COC[C@@H](O)CN2C(=O)Nc2cccc(Cl)c2)O1)c1ccccc1	-25
8	O=C(c1cccs1)N1C[C@@H]2OCCN(c3ncccn3)[C@H]2C1	-1
9	C[C@H](CO)N1C[C@H](C)[C@@H](CN(C)S(C)(=O)=O)Oc2ccc(NC(=O)NC3CCCCC3)cc2C1=O	15
10	CCC(=O)N1CC[C@H]2[C@@H]1c1cc(-c3ccc(C#N)cc3)ccc1N(C)[C@H]2CO	2
11	O=C(Nc1cccc(F)c1)c1c(O)c2cccnc2n(-c2cccc(F)c2)c1=O	42
12	CCC1CN(CCNC(=O)CSc2nnc(C)s2)Cc2cc(OC)ccc2O1 (stereo unspecified)	8
13	COc1cccc(NC2=NCC(=O)N2Cc2ccccc2)c1	-9
14	CCc1ccc(CN2CCC(c3n[nH]c(=O)n3CC)CC2)nc1	-2
15	CCC1(CC)CN(C(=O)CC2C(=O)NCCN2Cc2cccnc2)CCO1 (stereo unspecified)	2
16	CCOC(=O)CNC(=O)CSc1nc(N(C)C)nc(N(C)C)n1	1
17	CN(C)CC1CN(CC2CC2)Cc2nccn2C1 (stereo unspecified)	-5
18	O=C(NCc1cc(Cl)c2c(c1)OCCCO2)c1nc2ncccn2n1	-5
19	Cc1ccc(SC(=O)c2csnn2)cc1	-102*
20	Cc1cc2c(cc1O)NC(=O)CC2c1cc(=O)n2c3c(cccc13)CCC2 (stereo unspecified)	8
21	Cc1ccc(CN2CCOCC3(CCN(Cc4nccn4C)C3)C2)s1 (stereo unspecified)	52
22	CCN(CCN1CCOCC1)Cc1cc2cc(C)ccc2[nH]c1=O	-5
23	CCN1CCN(CCCNc2nc(-c3ccc(Cl)cc3)nc3ccccc23)CC1	-50
24	CCOC(=O)c1cc(C)nc2c1c(=O)n(Cc1nc(-c3ccc(OC)cc3)oc1C)c(=O)n2C	-24
25	CCc1ccc(-c2cn3c(C(=O)N4[C@@H]5CC[C@H]4CNC(=O)C5)csc3n2)cc1	46
26	O=C(c1cnccn1)N1CC(=O)N2[C@H](C1)[C@H](c1ccc(-c3cccc(F)c3)cc1)[C@@H]2CO	-55
27	O=C(NCCc1csc(-c2ccccc2)n1)C1CCN(C(=O)Cc2ccc(Cl)cc2)CC1	-48
28	O=C(CCCc1ccccc1)NCC1CCCO1 (stereo unspecified)	17
29	Cn1c(=O)c(-c2nc(-c3cccc(Cl)c3)no2)c(O)c2cc(F)ccc21	-9
30	CC(C)n1nc(Cn2ccnc2)c2c1CN(Cc1ccoc1)C2	-5
31	CCn1cc(CN2CCC(CNC(=O)c3cnccc3C)C2)cn1 (stereo unspecified)	-5
32	Cc1nocc1C(=O)N1CCC2C1CC(=O)N2c1cnn(C)c1 (stereo unspecified)	-2
33	COc1ccc2c(c1)NC1(CCN(C(=O)Nc3ccc(C)cc3)CC1)c1cccn1-2	369
34	Cc1nc(C)c(OCc2nc(CCc3ccccc3)no2)c(C)n1	-25
35	CCCCS(=O)(=O)N1CCC(c2nn(C)c(=O)n2-c2ccccc2)CC1	2
36	CCc1cnc(N2CCC3C2CCC(=O)N3c2cccnc2)nc1 (stereo unspecified)	-40
37	O=S(=O)(NCCc1csc(-c2ccc(Cl)cc2)n1)c1ccc(F)cc1	-30
38	COc1ccc(C[C@@H]2CN(C)CC[C@@H]2OCc2csc(C)n2)cc1	0
39	CN1C[C@@H]2CC[C@H](CC1=O)N2C(=O)CCn1cncn1	3
40	Cc1c(CNc2nc(-c3cccnc3)nc3c2CNC3)oc2ccccc12	-10
41	O=S(=O)(Nc1ccc2c(c1)OCCO2)c1ccc(-c2ccccn2)s1	-3
42	Cn1ccnc1-c1nccn1Cc1ccccc1-n1cccn1	34
43	Cc1nn(C)c(C(=O)N(C)CC2COc3ccccc3O2)c1Cl (stereo unspecified)	-11
44	COc1ccc(NC(=O)C2=C(C)C(=O)OC23CCN(S(C)(=O)=O)CC3)cc1OC	78
45	Cc1nc(-c2ccc(Cl)cc2)sc1CCNC(=O)c1ccccc1C(F)(F)F	-24
46	CC(C)=CC(=O)N1CCC2(CC1)NCCNC2=O	1
47	N#Cc1cccc(-c2ccc3c(c2)[C@H]2[C@H](CCN2Cc2ccc4c(c2)OCO4)[C@@H](CO)N3)c1	-44
48	CC(C)NC(=O)N1CC[C@@H]2[C@@H](CO)N(C)c3ccc(-c4ccc(F)cc4)cc3[C@@H]21	-79*
49	CCN(Cc1c(F)cccc1Cl)C(=O)c1cnn2ccn(C)c12	2
50	O=C1CN(Cc2cccc3cccnc23)CC(OCc2ccccn2)CN1C1CCCCC1 (stereo unspecified)	3
51	Cc1nc(-n2cnnc2)ccc1-c1ccc(C(N)=O)cc1	-1
52	CC1CCN(S(=O)(=O)c2ccc3c(ccc(=O)n3CC(=O)Nc3cccc(F)c3)c2)CC1	-81*
53	c1cn(Cc2ccc(-n3cncn3)cc2)c(-c2ccc3nonc3c2)n1	-39
54	COc1ccccc1CNC(=O)C[C@H]1C=C[C@H](NC(=O)CC2CC2)[C@@H](CO)O1	-40
55	O=C(Nc1cccc(F)c1)N1CCCC2(C1)Nc1cccnc1NC2=NCc1ccccc1 (stereo unspecified)	0
56	C[C@H](CO)N1C[C@H](C)[C@@H](CN(C)Cc2cccc(C(=O)Nc3ccccc3N)c2)OCc2ccccc2-c2c(n(C)c3ccccc23)C1=O	-46
57	Cc1noc(C)c1C(=O)N(C)C[C@H]1OCc2ccccc2-c2ccccc2C(=O)N([C@H](C)CO)C[C@H]1C	45
58	COc1nccnc1-c1c[nH]c2ccc(C)cc12	138
59	Cc1nc2ccc(C(=O)N3CCC(c4cc(C(C)C)n[nH]4)CC3)cc2[nH]1	-5
60	O=C(OCCN1CCCCC1)c1c[nH]c2ccccc12	-31

# Some of the entries above, reformatted:
[40] Cc1c(CNc2nc(-c3cccnc3)nc3c2CNC3)oc2ccccc12
  Tgondii IFNg: -10

[41] O=S(=O)(Nc1ccc2c(c1)OCCO2)c1ccc(-c2ccccn2)s1
  Tgondii IFNg: -3

[42] Cn1ccnc1-c1nccn1Cc1ccccc1-n1cccn1
  Tgondii IFNg: 34

[43] Cc1nn(C)c(C(=O)N(C)CC2COc3ccccc3O2)c1Cl (stereo unspecified)
  Tgondii IFNg: -11

# Next compounds follow.
no.	Compound	Tgondii IFNg
61	Cc1ccc2nc(-c3ccccn3)cc(C(=O)Nc3n[nH]c4nc(C)ccc34)c2c1	-99*
62	CC[C@@H]1OC[C@@H]2CN(C(=O)CN(C)C)CC[C@H]21	9
63	S=C(NCCN1CCCCC1)NCc1ccccc1	31
64	COc1ccc2c3c(n(C)c2c1)[C@H](CO)N(Cc1ccccc1)CC31CN(S(=O)(=O)c2ccc(C)cc2)C1	-55
65	CNC(=O)C(C)(C)NC(=O)CC1COc2ccc(C(=O)N(C)C)cc2N1C (stereo unspecified)	2
66	Cc1nc(CCNC(=O)[C@H]2CCCN2S(=O)(=O)c2ccc(Cl)cc2)cs1	9
67	Cc1ccc(C2c3[nH]c4ccccc4c3CCN2C(=O)c2ccco2)cc1 (stereo unspecified)	30
68	Cc1cccc(CN2CCC3(CC2)N=C(c2cccc(F)c2)C(=O)N3)c1	67
69	Cc1ccc2nc(-c3ccc(Cl)c(C)c3)cn2c1	-97*
70	COC(=O)C[C@@H]1CC[C@H]2[C@H](COc3ccc(NC(=O)c4ccc(C(F)(F)F)cc4)cc3C(=O)N2C)O1	13
71	Cc1oc2c(c1CC(=O)NCc1noc(-c3ccccc3)n1)C(=O)CC(C)(C)C2	45
72	COCCN(C)C(=O)c1ccc2onc(-c3coc(-c4cccs4)n3)c2c1	9
73	O=C(NC1CCCCC1)N1CC2(C1)[C@@H](c1ccccc1)[C@@H](CO)N2S(=O)(=O)Cc1ccccc1	-23
74	O=c1cc(C(F)(F)F)[nH]c2n[nH]c(-c3cccs3)c12	-19
75	CCO[C@H]1CC[C@@H]2[C@H]1OCCN2S(=O)(=O)c1c(C)nn(C)c1C	-5
76	Cc1ccc(CSC2=Nc3ccccc3C3=NC(CC(=O)NC4CCCCC4)C(=O)N23)c(C)c1 (stereo unspecified)	-20
77	Cc1nn(C)c(C)c1NS(=O)(=O)c1cc(Cl)sc1Cl	44
78	O=c1[nH]c(Cc2ccccc2)nc2c1C1(CCCCC1)Cc1ccccc1-2	-3
79	O=C(C1CC2(CCNCC2)CN1)N1CCCN(Cc2ccccn2)CC1 (stereo unspecified)	0
80	Cc1ccc(-c2nc(Cn3nnc(C(=O)NCc4ccc5c(c4)OCO5)c3C)c(C)o2)cc1	-45

# Values by screen from the list.
# Entries 72 to 78 in Tgondii IFNg, in turn: 9, -23, -19, -5, -20, 44, -3

# Going on with the list:
no.	Compound	Tgondii IFNg
81	Cc1cc(C)n(C)c(=O)c1C(=O)N(C)Cc1cc2cc(F)ccc2[nH]1	9
82	Cc1nc2ccc(N)cc2c(=O)n1Cc1ccccc1	0
83	COC(Cn1ccnc1-c1cccc2nonc12)c1cccs1 (stereo unspecified)	-6
84	O=C(c1nc(Nc2ccc(Cl)cc2)c2ccccc2n1)N1CCCc2ccccc21	44
85	CC(C)C(=O)N1CCCn2cnc(CN3CCCC3=O)c2C1	2
86	Cc1ccc(OCC(=O)NCCc2sc(-c3ccc(Cl)cc3)nc2C)cc1	-76*
87	O=C1N(Cc2ccncc2)CCC12CCCN(c1ncccn1)C2 (stereo unspecified)	-6
88	CCOC(=O)Cc1ccc(NC(=O)Nc2ccc(-c3nc(-c4cc(C)ccc4C)co3)cc2)cc1	-10
89	COc1ccccc1NC(=O)N1[C@H](CO)[C@H](c2ccccc2)[C@@H]1C#N	-5
90	O=C(C[C@@H]1C=C[C@H](NS(=O)(=O)c2ccccc2)[C@@H](CO)O1)NCCN1CCCCC1	18

# 4 of these compounds in another layout.
83) COC(Cn1ccnc1-c1cccc2nonc12)c1cccs1 (stereo unspecified)
  Tgondii IFNg = -6
84) O=C(c1nc(Nc2ccc(Cl)cc2)c2ccccc2n1)N1CCCc2ccccc21
  Tgondii IFNg = 44
85) CC(C)C(=O)N1CCCn2cnc(CN3CCCC3=O)c2C1
  Tgondii IFNg = 2
86) Cc1ccc(OCC(=O)NCCc2sc(-c3ccc(Cl)cc3)nc2C)cc1
  Tgondii IFNg = -76*

# More entries follow:
no.	Compound	Tgondii IFNg
91	CCN1CCC2(CC1)OC(=O)C(C)=C2C(=O)NCc1ccc(OC)cc1	194
92	Cc1cnn(Cc2nc(-c3ccc(NC(=O)CCc4ccccc4)cc3)oc2C)c1	-84*
93	OCC(S)CS (stereo unspecified)	32
94	Cc1ccc(CNC2=NCCNC23CCN(S(=O)(=O)c2ccc(Cl)s2)CC3)cc1	-34
95	O=C(c1cn(-c2ccccc2)nn1)N1CCC(c2ccccc2Cl)C1 (stereo unspecified)	9
96	O=C(NC1CCCC1)N[C@H]1C=C[C@@H](CC(=O)N2CCOCC2)O[C@H]1CO	-23
97	COc1ccc(-c2nc(NCC3CCN(Cc4cccc(Cl)c4)CC3)c3ccccc3n2)cc1	-47
98	CCOc1ccc(-c2nc(Cc3noc(-c4ccncc4)n3)c(C)o2)cc1	-16
99	FC(F)(F)CCCN1CCOC(CCCc2ccccc2)C1 (stereo unspecified)	-3
100	CCOC(=O)c1ccc(NC(=O)C2CCN(S(=O)(=O)c3ccc4[nH]c(=O)ccc4c3)CC2)cc1	-51
101	CC(C)c1cc(CN(C)C(=O)c2ccc(C#CC(C)(C)O)o2)on1	2
102	Cc1ccc2nc(-c3ccc(NC(=O)c4c(-c5ccccc5)noc4C)cc3)sc2c1	52
103	Cn1c(=O)sn(-c2cccc3ccccc23)c1=O	162
104	Cn1cc(-c2cc3n(n2)CCC(=O)N3CCCC(=O)NCc2ccccn2)c2ccccc21	53
105	COc1ccccc1C#Cc1ccc([C@@H]2[C@@H](C#N)N(C(=O)C3CCC3)[C@@H]2CO)cc1	-16
106	COc1ccccc1C(=O)NCCc1sc(-c2cccc(F)c2)nc1C	52
107	Cc1cc(C)cc(C(=O)N2CCCn3nnc(Cn4ccnc4)c3C2)c1	-2
108	O=C(Cn1c(=O)cc(C(=O)N2CCOCC2)c2ccccc21)Nc1ccccc1F	8
109	Cc1[nH]c(C)c2c(=O)n(Cc3ccccc3Cl)ncc12	26
110	CC(C)Oc1ccc(-c2noc(-c3c(O)c4ccc(F)cc4n(C)c3=O)n2)cc1	-32
111	CC(C)c1noc(-c2cc(=O)n(CC(=O)Nc3ccc(F)c(Cl)c3)c3ccccc23)n1	18
112	COCc1nc(N[C@@H](C)c2ncccc2C)c2cnn(C)c2n1	-3
113	COc1ccc(CCN2CN=C(NS(=O)(=O)c3ccc(C)cc3)NC2)cc1OC	-18
114	CNC[C@@H]1OCCCC[C@H](C)Oc2ccc(NC(=O)Nc3ccc(OC)cc3)cc2C(=O)N([C@H](C)CO)C[C@@H]1C	-6
115	Cc1ccc(Oc2ncccc2CNC(=O)C(C)N2CCCC2)cn1 (stereo unspecified)	4
116	CC1CCCN(c2nc(-c3ccc(Cl)cc3)nc3ccccc23)C1 (stereo unspecified)	-25
117	COCCN1C(=O)C2(CCOCC2)c2cc(NCc3ccco3)ccc21	-4
118	Cc1sc2ncn3c(SCC(=O)NCc4ccccc4)nnc3c2c1C	-13
119	CCN(C)c1ccnc(N2CCN(Cc3cc(F)ccc3F)CC2)n1	-28
120	COc1ccc(-n2ccc(-c3cc(C(=O)N4CCN(C)CC4)c4ccccn34)n2)cc1	-33
121	CC(C)CC(NS(=O)(=O)c1ccc2[nH]c(=O)ccc2c1)C(=O)Nc1ccc(F)c(Cl)c1 (stereo unspecified)	35
122	Cc1nn(C)c(C)c1S(=O)(=O)N1CC(c2ccccn2)C1	0
